# Bioassay records from PubChem.
# D2 ag: agonists of human D2 dopamine receptor (beta-arrestin). P14416. DiscoveRx PathHunter D2 beta-arrestin, luminescence, 90 min; 100% = 57 uM dopamine signal. activation, % (no concentration beside the values). actives 0.084% (n = 360,000). AID 624465; in the data active = activation above about 40%; inconclusive = about 15% to 40%; inactive = below about 15%; also: compound concentration not given in the record; the text of the record calls up to 30% inactive
# Target sequence (P14416 whole entry, looked up): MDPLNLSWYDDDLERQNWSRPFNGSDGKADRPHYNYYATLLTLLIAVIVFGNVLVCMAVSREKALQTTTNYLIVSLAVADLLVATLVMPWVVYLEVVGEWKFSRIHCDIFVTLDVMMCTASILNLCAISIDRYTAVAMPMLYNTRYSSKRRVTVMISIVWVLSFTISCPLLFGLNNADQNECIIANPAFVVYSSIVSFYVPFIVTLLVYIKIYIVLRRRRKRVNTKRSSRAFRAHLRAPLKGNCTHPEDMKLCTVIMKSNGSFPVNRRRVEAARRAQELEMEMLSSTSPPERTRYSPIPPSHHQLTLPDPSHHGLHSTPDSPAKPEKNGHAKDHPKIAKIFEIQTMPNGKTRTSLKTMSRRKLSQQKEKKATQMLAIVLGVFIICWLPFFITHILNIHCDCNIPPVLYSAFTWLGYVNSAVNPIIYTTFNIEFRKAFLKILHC
#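 DiscoveRx PathHunter D2 beta-arrestin cells (2,100/well) attached overnight, then compound-stimulated 90 min at 37 C in HBSS/10 mM HEPES/0.1% Tween-20 buffer; beta-galactosidase complementation read by luminescence after 1 h at ambient temperature. Dopamine 57 uM final (EC100) as control.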
# D2 PAM: positive allosteric modulators of human D2 dopamine receptor. P14416. DiscoveRx D2 beta-arrestin cells, luminescence, 90 min; 100% = 57 uM dopamine signal. potentiation, % (test concentration not listed). actives 0.23% (n = 360,000). AID 624464; active = potentiation of 50% or more; inconclusive = 30% to 50%; inactive = 30% or less;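 also: compound concentration not given in the record; tested on top of an EC20 dose of dopamine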
#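 PathHunter beta-arrestin assay in DiscoveRx D2 cells. Compounds were added with an EC20 of dopamine (50 nM final) for 90 min at 37 deg C. Luminescence was read 1 h after detection reagent, with 57 uM dopamine as the EC100 control.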
# Six1-Eya2 blk: inhibitors of human Six1/Eya2 interaction; AlphaScreen GST-Six1/His-Eya2 binding, biochemical; active compounds read low; control for the full effect not named in the record; activity change, % (concentration not given with the values); actives 0.56% (n = 360,000); AID 651725; in the data active = activity change below about -65%; inconclusive = about -30% to -65%; inactive = above about -30%; also: % is scaled to controls: 0 for no effect and ±100 for the full control effect
#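 GST-Six1 + His-Eya2 (5X stock: 250/500 nM); Tris pH 8.0, 300 mM NaCl, 0.05% BSA, 0.02% Tween 20; GSH donor/Ni acceptor beads; 1 h 37 °C dark; AlphaScreen readout.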
# gsp agonist: gsp mutant agonism | gsp mutant cells, cAMP HTRF, 30 min; control for the full effect not named in the record | Potency, µM (highest dose often 76.9 µM), for the others: at the highest dose activation (cAMP increase), actives largely listed as activators | actives 0.13% (n = 340,000) | AID 624287; active = well fitted activation curve with a large enough effect; inconclusive = small, poorly fitted or top-dose-only effect, or another doubt; inactive = no such curve, though single readings can be large or run the other way; cell line not stated here;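 also: phosphodiesterase inhibitor Ro 20-1724 added with compounds to block cAMP breakdown; potency is read from the fitted curve at half-maximal effect; nearly all actives have a fitted effect of over 60% in size; about a fifth of the inactives were tested at one dose only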
#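 Cells stably selected in G418 were plated at 2000/well, grown 16-24 hr, then given compounds in DMSO with the PDE inhibitor […] (300 uM solution added) for 30 min at 37C; cAMP was read by HTRF.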
# gsp antag: antagonizes gsp, the McCune-Albright syndrome mutation; actives 0.4% (n = 340,000); Potency, µM (doses to about 76.9 µM), for inactives: at the top dose activity change, negative = inhibition, usual class: inhibitors; gsp-mutant cells, cAMP HTRF, 30 min; control for the full effect not named in the record; active = falling curve of any shape with a large fitted effect; inconclusive = falling curve, mostly with a smaller effect; inactive = flat or rising curve; cell line not stated here;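 also: intracellular cAMP measured with PDE inhibitor Ro 20-1724 present during compound exposure; potency is read from the fitted curve at half-maximal effect; % is scaled to controls: 0 for no effect and ±100 for the full control effect; nearly all actives have a fitted effect of over 65% in size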
#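 HTRF cAMP read-out (cAMP-d2 plus anti-cAMP antibody-K in lysis buffer, 30 min RT). Before lysis, cells are exposed to compounds with […] for 30 min at 37C in DPBS containing Ca/Mg, BSA and Tween 20.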
# CtBP-E1A blk: CtBP/E1A binding inhibition; AlphaScreen GST-E1A/His-CtBP binding, 1536-well; active compounds read low; control for the full effect not named in the record; activity change, % (test concentration not listed); actives 0.49% (n = 340,000); in the data active means activity change below about -65%; inconclusive means about -30% to -65%; inactive means above about -30%; also: % is scaled to controls: 0 for no effect and ±100 for the full control effect
#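 Homogeneous bead-based format: GST-tagged E1A captured on glutathione donor beads, His-tagged CtBP on nickel acceptor beads; compounds precede bead addition by 2 h at 37 °C.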
# Active calls of the source: *; ? = inconclusive; . = no result given; [ ] = another dose, or the depositor's remark. The order is random, and some 1.4% of all compounds hit somewhere here.
SMILES,D2 ag,D2 PAM,Six1-Eya2 blk,gsp agonist,gsp antag,CtBP-E1A blk
S=c1[nH]nc(-c2ccccn2)n1/N=C/c1ccc(Cl)cc1,3.8,-24,-75*,-10%[15.4 µM],-40%,?
COCCCNC(=S)N1CCN(c2nc(-c3ccc(Cl)cc3)cs2)CC1,3.5,-16,-5,?,.,0
COc1ccc(C(=O)c2sc(Nc3ccccc3)c(C(=O)Nc3ccc(OC)c(OC)c3)c2N)cc1,-3.5,-5,-17,19%,-1%,-12
Cc1cc(C)n2nc(C(=O)OCC(=O)N(CC(C)C)C3CCS(=O)(=O)C3)nc2n1 (stereo not drawn),-6.5,-4,2,-5%,9%,8
Cc1cccc(-n2nc3c(c2NC(=O)c2ccco2)CS(=O)(=O)C3)c1C,-3.4,0,7,4%[15.4 µM],-4%,7
CCOC(=O)c1c(C)[nH]c(C)c1C(=O)COC(=O)[C@@H](NC(=O)c1ccccc1OCC)C(C)C,-0.1,-14,-11,-6%,-10%,-17
Clc1ccc(-c2nnc(-c3ccc4ccccc4c3)o2)cc1,-4.8,-16,5,-3%[15.4 µM],7%,16
O=C(NCC1CCCO1)c1ccccc1-c1nc(-c2ccc(F)cc2)no1 (stereo not drawn),-2.8,-1,4,10%,1%,8
COc1ccc(/C=N/Nc2ccc(C(F)(F)F)cc2[N+](=O)[O-])cc1O,-2.2,-3,-10,-2%[15.4 µM],-14%,-12
CCC(NC(=O)Cn1cnc2c(=O)n(C)c(=O)n(C)c21)c1ccccc1 (stereo not drawn),-2.7,-13,5,?,6%,-2
CC(=O)c1ccc(NC(=O)CSc2nccn2C)cc1,-4.0,-9,7,-17%,1%,.
N=c1c2c(ncn1Cc1ccco1)Oc1ccc3ccccc3c1C2c1ccccc1 (stereo not drawn),1.1,7,-24,-22%,-21%,-7
NC(=O)c1ccc(N2CCCCC2)c(N2C(=O)C3CC=CCC3C2=O)c1 (stereo not drawn),-0.8,-6,2,16%,4%,-10
COc1ccc(-n2cc(CN3CCCC3)c(-c3cccc(F)c3)n2)cc1,-1.8,1,-21,-18%[15.4 µM],5%,20
CC(C)c1ccc(/C=C2\SC(=O)N(CC(=O)NC3CCS(=O)(=O)C3)C2=O)cc1 (stereo not drawn),-0.4,-5,1,7%,-15%,.
Cc1ccc(C(=O)Nc2ccc(N3CCCC3)cc2)cc1,1.1,-6,-17,-12%[15.4 µM],-11%,-21
COc1ccc(C(=O)NC2CCN(S(=O)(=O)c3ccccc3F)CC2)cc1,-4.9,-5,2,-42%,-14%,4
COc1cc(OC)cc(-c2nc(-c3ccccc3OC)no2)c1,-0.7,0,2,?,3%,-4
CN1/C(=C\C=C2\N=C(c3ccc(F)cc3)OC2=O)C(C)(C)c2ccccc21,-2.7,-13,-5,-21%,-8%,-6
COC(=O)C(C#N)C(c1cccnc1)c1c(C)[nH][nH]c1=O (stereo not drawn),1.6,3,-1,-41%,1%,10
O=C(Cc1ccccc1)NCc1ccc(-n2cccc2)cc1,-5.3,-2,6,-60%[inhibitor],1%,-7
O=C(O)CCCCCn1c(SCC(=O)Nc2ccc(F)cc2)nc2ccsc2c1=O,-2.8,0,-1,19%,-18%,-29
O=S(=O)(c1ccc(Cl)cc1)N1CCN(Cc2ccc(O)c3ncccc23)CC1,-5.2,-3,-92*,-2%[15.4 µM],4%,2
COc1ccc(N2CCN(C(=O)NCc3ccc(OC)c(OC)c3)CC2)cc1,-1.5,-2,19,-3%[15.4 µM],-7%,0
COc1ccc2cc3cc(C(=O)N(C)C4CCCCC4)oc3nc2c1,1.9,-7,-2,0%,2%,3
Cc1cc(C)c2ccc(Cl)cc2n1,0.2,-6,22,?,5%,5
N=c1oc2ccccc2cc1C(=O)Nc1ccccc1,3.6,-4,2,-75%[inhibitor],-4%,8
O=C(NCCNS(=O)(=O)c1ccccc1)c1cc(OCC(F)(F)F)ccc1OCC(F)(F)F,-3.5,4,-2,-37%[inhibitor],4%,-18
S=C(NC1CCCC1)NC1CC1,0.7,-5,1,-15%,4%,3
CC(C)(C)C(=O)NC1(C(F)(F)F)N=C2SCCN2C1=O (stereo not drawn),-3.0,?,8,-70%,1%,6
COC(=O)c1ccccc1S(=O)(=O)N1CCC(C(=O)N(C)CCOc2ccccc2)CC1,-6.2,-24,12,-2%[15.4 µM],-15%,12
Oc1ccc(Br)cc1-c1ccn[nH]1,-1.2,-8,1,8%,1%,2
CN1/C(=C/C=N/NC(=O)c2ccc([N+](=O)[O-])cc2)C(C)(C)c2ccccc21,0.6,-7,2,22%,-17%,13
C#CCOCCOCCOCCNc1nc(N2CCN(C(=O)C([C@@H](C)O)n3cc([C@@H](N)CCCCN)nn3)CC2)nc(N2CCN(C(=O)[C@H](CCC(=O)O)n3cc([C@@H](N)[C@H](C)CC)nn3)CC2)n1 (stereo partly drawn),-1.4,.,-12,.,13%,-15
CCN(CC(=O)Nc1ccc(NC(C)=O)cc1)C(=O)CCCN1C(=O)c2ccccc2C1=O,-4.6,-18,-4,16%[15.4 µM],16%,2
Cc1cccnc1NC(=O)Nc1cccc2ccccc12,-1.1,21,1,?,3%,0
NC(=O)c1nsc(C(=O)N(c2cccc(F)c2)C(C(=O)NCC2CCCO2)c2ccc3ncccc3c2)c1N (stereo not drawn),11,7,-3,0%[15.4 µM],-15%,0
CSCCC(NC(=O)c1cccc(S(=O)(=O)N2CCOCC2)c1)C(=O)Nc1cccc(C)c1 (stereo not drawn),-3.2,-13,-3,-43%[inhibitor],1%,4
CC1CN(C(=O)c2ccc(C(=O)c3ccccc3)cc2)CC(C)O1 (stereo not drawn),1.4,-8,3,-38%[inhibitor],-4%,6
CC(=O)C1=CCC(c2cccs2)N(S(=O)(=O)c2ccc(C)cc2)C1 (stereo not drawn),-2.9,-5,-3,.,.,1
COc1cc(CNCc2ccccc2C(F)(F)F)cc(OC)c1,-4.5,-4,26,7%,2%,12
Cc1ccc(Cc2c(-c3ccco3)nc3ccc(Br)cn23)cc1,-5.9,1,-13,.,.,3
COc1ccc(NC(=O)c2ccc(Oc3ncccn3)cc2)cc1,0.4,3,6,9%,6%,8
COc1ccc(NC(=O)CCCC(=O)c2ccccc2)cc1OC,-0.8,-18,-3,?,-6%,-21
CCc1nn2c(=O)c(S(=O)(=O)Nc3ccc(Cl)cc3)c(C)nc2s1,-5.8,2,-1,2%,-6%,2
O=C(NCCc1cccc(Cl)c1)c1ccc2c(c1)OCO2,-9.4,-9,7,1%,0%,-1
COc1ccccc1N1CCN(C2CCN(C(=O)COc3cccc(C)c3)CC2)CC1,-0.2,-40,0,7%,3%,-5
CSC(=NC#N)N1CCN(c2ccccc2)CC1,-0.5,-3,-2,-5%,3%,1
COc1cc(CCC(=O)OCC(=O)Nc2nc(C)c(Cl)cc2Cl)cc(OC)c1OC,0.8,-7,2,8%,-17%,3
CC(C)(C)c1ccc(C(=O)NNC(=O)C2CCCCC2)cc1,-2.9,0,5,10%,8%,2
O=C(Nc1nc2cc3c(cc2s1)OCO3)C1CCCCC1,-1.1,-3,-15,-26%,-3%,-17
CCN(Cc1ccccc1)N=Nc1ccccc1,0.5,-3,37,-8%,.,5
CCN(CC)S(=O)(=O)c1cc(C(=O)Nc2nncs2)c(Cl)cc1Cl,2.8,27,-2,10%,?,-9
Cc1ccc(Cl)cc1N1CCN(CC(O)COC(C)C)CC1 (stereo not drawn),-9.3,-25,-2,-4%,10%,7
Cn1c(CCNC(=O)c2ccco2)nc2cc(NC(=O)c3ccco3)ccc21,-0.2,-3,3,-6%,-11%,5
O=C(CNC(=S)NC(=O)c1ccc(Cl)cc1)c1ccccc1,-2.0,-16,5,2%,22%,-15
N#CC1=C(N)C(C#N)(C#N)C(c2ccc[nH]2)C2CCCC=C12 (stereo not drawn),-0.2,0,-17,3%,-10%,-14
COc1ccc(CN/C(C)=C(/C#N)C(N)=O)cc1OC,1.8,-3,0,23%,8%,-2
O=S(=O)(c1cccc2ccccc12)N1CCC2CC1c1cc(-c3ccc4c(c3)OCO4)ccc12 (stereo not drawn),-1.6,0,0,.,.,1
Cc1cc(C(=O)NCc2ccco2)c2ccccc2n1,-4.2,-5,-3,-7%[15.4 µM],5%,-1

# Four compounds from above with just Six1-Eya2 blk, D2 ag and CtBP-E1A blk.
SMILES	Six1-Eya2 blk	D2 ag	CtBP-E1A blk
CC(C)(C)c1ccc(C(=O)NNC(=O)C2CCCCC2)cc1	5	-2.9	2
O=C(Nc1nc2cc3c(cc2s1)OCO3)C1CCCCC1	-15	-1.1	-17
CCN(Cc1ccccc1)N=Nc1ccccc1	37	0.5	5
CCN(CC)S(=O)(=O)c1cc(C(=O)Nc2nncs2)c(Cl)cc1Cl	-2	2.8	-9

# Taken from above:
# `Cc1cc(C(=O)NCc2ccco2)c2ccccc2n1` – CtBP-E1A blk = -1
# `COc1ccc(CN/C(C)=C(/C#N)C(N)=O)cc1OC` – gsp antag = 8%

# Going on with the list.
SMILES,D2 ag,D2 PAM,Six1-Eya2 blk,gsp agonist,gsp antag,CtBP-E1A blk
CCOc1ccc(/C=C/C2=NNC(=O)CC2)cc1,1.4,-7,23,-9%[15.4 µM],-7%,31
Cc1nnsc1C(=O)Nc1ccc(S(=O)(=O)N2CCCCC2)cc1,3.7,-10,0,18%,12%,-9
CCOc1cc(C)ccc1OCc1nnc(SCC(=O)c2cccc([N+](=O)[O-])c2)n1CC,-2.1,-10,-10,-4%,2%,-8
COc1ccccc1OCC(=O)Nc1cc(C)ccc1NC(=O)c1ccco1,-3.0,-1,1,15%,2%,-1
Cc1cc(C(=O)COc2ccc(C#N)cc2)c(C)n1CC1CCCO1 (stereo not drawn),1.2,-3,-12,-26%,-5%,-10
CC(C)(C)c1ccc(-c2nnc(SCC(=O)O)n2N)cc1,-2.8,-1,2,23%,-4%,11
CCOc1ccc(C(=O)NCC(=O)N2CCCCCCC2)cc1,1.8,-5,-3,-49%[inhibitor],-2%,.
CCOn1c(=O)c(-c2ccc(C)cc2)[n+]([O-])c2ccccc21,0.0,-2,4,-12%,1%,-1
O=C(NNC(=O)C1CC(=O)N(Cc2ccccc2)C1)c1ccc(Br)cc1 (stereo not drawn),-3.4,-17,-2,-11%,2%,4
CCOC(=O)c1cncc(C(=O)O)c1,0.8,6,1,-28%,-2%,10
COc1cc(CCCN2C(N)=NC[C@@H]2Cc2ccccc2)cc(OC)c1OC,2.3,-5,2,.,12%,0
COc1cccc(/C=C2\SC(=O)N(CCC(=O)NC3CCS(=O)(=O)C3)C2=O)c1 (stereo not drawn),0.9,-6,0,?,-15%,2
COCCCNC(=O)C(=O)NC1CCCCCC1,0.3,4,2,16%,-9%,7
CCc1nc(SCc2ccccn2)[nH]c(=O)c1C,-3.3,5,-3,-7%[15.4 µM],?,6
CCCCOc1cc(=O)[nH]c(=O)[nH]1,1.4,8,6,2%,17%,6
